Source: PubChem BioAssay (Broad Institute)
Vaccinia inh – blocks a specific stage of Vaccinia orthopoxvirus infection; AID 1053133; activity change (mCherry), % (test concentration not listed); Vaccinia-infected cells, mCherry/Venus stage reporter fluorescence; active compounds read low; some inactives read as strong as hits; 89,000 tested, 0.01% active;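 active = mCherry past -33% and 40 or more points under the early reporter, replicates agreeing; inconclusive = past -33% without that gap or agreement; tested in A549 cells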;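 also: scaled between vehicle wells and reference inhibitor wells; 23 nL library stock went into each well; one replicate is shown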
Vaccinia inh Venus – further read-out of Vaccinia inh, marked with its call; activity change (Venus), %; measured here: Venus reporter, other viral stage;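 negative = less Venus signal; first of two replicates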
Active calls of the source: *; ? = inconclusive; . = no result given.

The line under a structure holds: Vaccinia inh Venus	Vaccinia inh
COc1cccc(S(=O)(=O)Nc2ccc3c(c2)[C@H]2C[C@H](CC(=O)N[C@@H](C)c4ccccc4)O[C@H](CO)[C@H]2O3)c1
  9	8
C/C=C/c1cnc2c(c1)C(=O)N([C@H](C)CO)C[C@@H](C)[C@@H](CN(C)Cc1ccc(F)cc1)O2
  5	7
Cc1noc(C)c1S(=O)(=O)N(C)C[C@@H]1OCCCC[C@H](C)Oc2ccc(NC(=O)C3CCCCC3)cc2C(=O)N([C@H](C)CO)C[C@H]1C
  .	?
COc1ccc(S(=O)(=O)N[C@H]2CC[C@@H](CC(=O)N3CCc4ccccc4C3)O[C@H]2CO)cc1
  0	-3
C[C@H]1CCCCO[C@H](CN(C)S(=O)(=O)c2ccccc2)[C@@H](C)CN([C@@H](C)CO)C(=O)c2cc(NC(=O)CCC(F)(F)F)ccc2O1
  -4	-3
O=C(Nc1ccccc1)N1CCCCN2[C@H](CO)[C@@H](c3ccc(C#CC4CC4)cc3)[C@H]2C1
  .	?
C[C@H](CO)N1C[C@H](C)[C@H](CN(C)Cc2ccncc2)Oc2c(NC(=O)c3cnccn3)cccc2C1=O
  6	12
COCC#Cc1cnc2c(c1)C(=O)N([C@@H](C)CO)C[C@@H](C)[C@@H](CN(C)S(=O)(=O)c1ccccc1)O2
  8	15
O=C(c1cccc(F)c1)N1C[C@H]2[C@@H](c3ccccc31)[C@@H](CO)N2C(=O)c1cccc(F)c1
  16	-1
CN(C)CC(=O)N[C@H]1CC[C@H](CCn2cc(C3CC3)nn2)O[C@H]1CO
  4	3
CCCNC[C@@H]1[C@@H](c2ccc(C3=CCCC3)cc2)[C@@H](CO)N1C(=O)C1CCCC1
  1	-14
O=C(C[C@@H]1CC[C@@H](NC(=O)Cc2cccnc2)[C@@H](CO)O1)Nc1ccc(-c2ccccc2)cc1
  -5	-15
C[C@@H]1CN([C@@H](C)CO)C(=O)c2cccc(NC(=O)c3cnccn3)c2O[C@@H]1CN(C)Cc1ccc(C(=O)O)cc1
  13	8
CC(C)C#Cc1cnc2c(c1)C(=O)N([C@H](C)CO)C[C@H](C)[C@H](CN(C)C(=O)Cc1ccccn1)O2
  11	0
C[C@H](CO)N1C[C@H](C)[C@@H](CN(C)S(C)(=O)=O)OCCCC[C@H](C)Oc2ccc(NS(=O)(=O)c3cn(C)cn3)cc2C1=O
  19	19
COc1ccc2c3c(n(C)c2c1)[C@@H](CO)N(C(=O)c1cnccn1)CC31CCN(C(=O)c2ccncc2)CC1
  -41	-24
C[C@H](CO)N1C[C@H](C)[C@@H](CN(C)C(=O)Nc2ccc(F)cc2)Oc2cc(-c3ccncc3)ccc2S1(=O)=O
  -2	3
O=C(C1CCC1)N1CCCCN2[C@H](CO)[C@H](c3ccc(C#CC4(O)CCCC4)cc3)[C@H]2C1
  -15	0
COc1ccc(S(=O)(=O)Nc2cccc3c2O[C@H](CN(C)C)[C@@H](C)CN([C@@H](C)CO)C3=O)cc1
  8	8
C[C@H]1CN([C@@H](C)CO)C(=O)c2cccc(NC(=O)c3cnccn3)c2O[C@@H]1CN(C)Cc1ccc2c(c1)OCO2
  2	-8
C[C@H]1CN([C@@H](C)CO)C(=O)Cc2cc(NC(=O)NC3CCCCC3)ccc2O[C@@H]1CN(C)C
  9	28
C[C@@H]1CN([C@H](C)CO)S(=O)(=O)c2ccc(-c3ccccc3F)cc2O[C@H]1CN(C)C
  -24	-20
C[C@H](NC(=O)C[C@@H]1CC[C@@H](NC(=O)Nc2ccc3c(c2)OCO3)[C@@H](CO)O1)c1ccccc1
  -8	-16
Cc1ccc(S(=O)(=O)N(C)C[C@@H]2Oc3ccc(NS(=O)(=O)c4cccs4)cc3CC(=O)N([C@@H](C)CO)C[C@@H]2C)cc1
  -1	13
C[C@@H]1CN([C@@H](C)CO)C(=O)c2cc(NS(=O)(=O)c3ccccc3)ccc2O[C@@H](C)CCCCO[C@H]1CN(C)S(=O)(=O)c1ccccc1
  -33	-31
CC(C)CC#Cc1cnc2c(c1)C(=O)N([C@H](C)CO)C[C@@H](C)[C@@H](CN(C)Cc1ccccc1C(=O)O)O2
  -11	-17
CC(=O)N1CC2(C1)[C@H](c1ccccc1)[C@@H](CO)N2C(=O)c1ccncc1
  10	10
C[C@@H]1CN([C@@H](C)CO)C(=O)c2cccc(NC(=O)NC3CCCCC3)c2O[C@@H]1CN(C)S(=O)(=O)c1cccs1
  -19	-26
COc1ccc(CN(C)C[C@H]2Oc3ccc(NC(=O)CCC(F)(F)F)cc3C(=O)N([C@@H](C)CO)C[C@@H]2C)cc1
  1	8
C[C@H](CO)N1C[C@H](C)[C@H](CN(C)C(=O)Nc2cc(F)ccc2F)Oc2ncc(-c3cccc(F)c3)cc2C1=O
  -5	-12

The closing 7 records of the section above lead into the next.
The line under a structure holds: Vaccinia inh Venus	Vaccinia inh
Cc1ccc(S(=O)(=O)N(C)C[C@@H]2Oc3ccc(NS(=O)(=O)c4cccs4)cc3CC(=O)N([C@@H](C)CO)C[C@@H]2C)cc1
  -1	13
C[C@@H]1CN([C@@H](C)CO)C(=O)c2cc(NS(=O)(=O)c3ccccc3)ccc2O[C@@H](C)CCCCO[C@H]1CN(C)S(=O)(=O)c1ccccc1
  -33	-31
CC(C)CC#Cc1cnc2c(c1)C(=O)N([C@H](C)CO)C[C@@H](C)[C@@H](CN(C)Cc1ccccc1C(=O)O)O2
  -11	-17
CC(=O)N1CC2(C1)[C@H](c1ccccc1)[C@@H](CO)N2C(=O)c1ccncc1
  10	10
C[C@@H]1CN([C@@H](C)CO)C(=O)c2cccc(NC(=O)NC3CCCCC3)c2O[C@@H]1CN(C)S(=O)(=O)c1cccs1
  -19	-26
COc1ccc(CN(C)C[C@H]2Oc3ccc(NC(=O)CCC(F)(F)F)cc3C(=O)N([C@@H](C)CO)C[C@@H]2C)cc1
  1	8
C[C@H](CO)N1C[C@H](C)[C@H](CN(C)C(=O)Nc2cc(F)ccc2F)Oc2ncc(-c3cccc(F)c3)cc2C1=O
  -5	-12
COc1cccc(C#Cc2ccc([C@H]3[C@@H](C#N)N(C(=O)C4CCC4)[C@@H]3CO)cc2)c1
  .	?
C[C@H](CO)N1C[C@H](C)[C@@H](CN(C)C(=O)Nc2ccc(C(F)(F)F)cc2)Oc2ccc(NC(=O)Cn3cnnn3)cc2CC1=O
  -1	5
C/C=C/c1ccc([C@@H]2[C@@H](CO)N3CCCCN(C(=O)Nc4cc(F)ccc4F)C[C@H]23)cc1
  .	?
Cc1ccccc1S(=O)(=O)N1CC(=O)N2[C@H](CO)[C@@H](c3ccc(C#CCC4CCCC4)cc3)[C@@H]2C1
  -13	-10
CN(C)C(=O)C[C@@H]1C[C@@H]2c3cc(NC(=O)NC4CCCC4)ccc3O[C@@H]2[C@@H](CO)O1
  13	19
C/C=C/c1cnc2c(c1)C(=O)N([C@H](C)CO)C[C@H](C)[C@H](CN(C)C(=O)NC1CCCCC1)O2
  16	16
C[C@H](CO)N1C[C@H](C)[C@@H](CN(C)Cc2ccc(C(=O)O)cc2)Oc2ncc(Br)cc2C1=O
  5	17
C[C@@H]1CN([C@@H](C)CO)C(=O)Cc2cc(NC(=O)Cc3ccccc3)ccc2O[C@@H]1CN(C)C(=O)Nc1ccccc1
  8	13
COc1ccc(C#Cc2cccc(-c3nc(C(=O)O)cc4c3[C@H](CCO)N(S(=O)C(C)(C)C)C4)c2)cc1OC (stereo partly drawn)
  17	8
COc1ccc(NC(=O)Nc2ccc3c(c2)C(=O)N([C@H](C)CO)C[C@H](C)[C@H](CN(C)S(=O)(=O)c2cn(C)cn2)O3)cc1
  17	24
C[C@@H]1CN([C@@H](C)CO)C(=O)c2cccc(NS(=O)(=O)c3cn(C)cn3)c2O[C@@H]1CN(C)C(=O)Nc1ccccc1
  12	13
CCC(=O)N1C[C@H](C)[C@@H](OC)CN(C)C(=O)c2cc(NS(=O)(=O)CC)ccc2OC[C@@H]1C
  11	5
C[C@H](CO)N1C[C@H](C)[C@H](CN(C)C(=O)Nc2cccc(C(F)(F)F)c2)OCc2ccccc2-c2ccccc2C1=O
  .	?
COc1ccc(C#Cc2cnc3c(c2)C(=O)N([C@H](C)CO)C[C@H](C)[C@H](CN(C)S(=O)(=O)c2ccc(C#N)cc2)O3)cc1OC
  .	?
C[C@H](CO)N1C[C@H](C)[C@H](CN(C)Cc2ccccc2C(=O)O)Oc2ncc(C3=CCCCC3)cc2C1=O
  8	12
C[C@@H]1CN([C@H](C)CO)C(=O)c2cc(-c3ccc(C#N)cc3)cnc2O[C@H]1CN(C)Cc1cccnc1
  6	10
Cc1nn(C)cc1NC(=O)C[C@H]1CC[C@H]2[C@@H](COc3ccc(NC(=O)NC(C)C)cc3C(=O)N2C)O1
  -2	-1
CCC(=O)N1CCCCN2[C@H](CO)[C@@H](c3ccc(-c4cccnc4)cc3)[C@H]2C1
  0	23
O=C(c1cccc(F)c1)N1CCCCN2[C@H](C1)[C@@H](c1ccc(-c3cncnc3)cc1)[C@@H]2CO
  9	25
Cc1ccc(S(=O)(=O)Nc2ccc3c(c2)C(=O)N([C@H](C)CO)C[C@@H](C)[C@H](CN(C)S(=O)(=O)c2ccccc2)OCCCC[C@@H](C)O3)cc1
  .	?
C[C@@H]1CN([C@H](C)CO)C(=O)CCCn2nncc2CO[C@H]1CN(C)C(=O)OCc1ccccc1
  18	3
CN1CCN(C(=O)c2cc3c(c(-c4cccc(-c5cccc(C(=O)N(C)C)c5)c4)n2)[C@@H](CCO)N([S@](=O)C(C)(C)C)C3)CC1
  15	9
COc1ccc(NC(=O)N2CCCCN3[C@H](CO)[C@@H](c4ccc(C#Cc5ccccc5)cc4)[C@@H]3C2)cc1
  .	?
C[C@@H]1CN([C@@H](C)CO)S(=O)(=O)c2ccc(-c3ccccc3)cc2O[C@H]1CN(C)C(=O)C1CCCCC1
  .	?
C[C@@H](NC(=O)[C@@H]1[C@@H](CO)[C@@H]2Cn3c(ccc(-c4ccccc4F)c3=O)[C@H]1N2C)c1ccccc1
  0	-1
COc1ccc(CN(C)C[C@H]2Oc3ccc(NC(=O)Nc4ccc(F)cc4)cc3CC(=O)N([C@H](C)CO)C[C@@H]2C)cc1
  -27	-31
CCC(=O)Nc1ccc2c(c1)C(=O)N(C)[C@H]1CC[C@H](CC(=O)NCc3ccccc3Cl)O[C@H]1CO2
  10	15
C[C@H](NC(=O)[C@@H]1N[C@@H]2c3ccc(-c4ccc(C(=O)N(C)C)cc4)c(=O)n3C[C@@H]2[C@H]1CO)c1ccccc1
  1	-6
O=C(CN1CCOCC1)N1CCCCN2[C@H](C1)[C@@H](c1ccc(C#Cc3ccccc3F)cc1)[C@@H]2CO
  -27	-7
C/C=C/c1ccc([C@H]2[C@H](C#N)N(c3nc(-c4ccccc4)cs3)[C@H]2CO)cc1
  3	2

Next part.
The line under a structure holds: Vaccinia inh Venus	Vaccinia inh
COc1cccc(-c2ccc3c(c2)[C@@H]2[C@@H](CCN2S(=O)(=O)c2ccc(F)cc2)[C@H](CO)N3C)c1
  .	?
C[C@H](CO)N1C[C@H](C)[C@H](CN(C)Cc2ccc(C(F)(F)F)cc2)Oc2c(NS(=O)(=O)c3ccccc3)cccc2C1=O
  .	?
COc1cccc(-c2ccc([C@H]3[C@H]4CN(C(=O)c5ccncc5)CC(=O)N4[C@H]3CO)cc2)c1
  3	-2
COc1ccc(CN(C)C[C@H]2OCCCC[C@@H](C)Oc3ccc(NC(=O)Nc4ccc5c(c4)OCO5)cc3C(=O)N([C@H](C)CO)C[C@H]2C)cc1
  .	?
CC(C)NC(=O)N1Cc2cc(C(=O)NC3CCCCC3)nc(-c3cccc(-c4cccnc4)c3)c2[C@@H]1CCO
  -17	-21
O=C(Nc1ccc(F)cc1)N[C@H]1CC[C@@H](CC(=O)N2CCOCC2)O[C@@H]1CO
  1	-1
C[C@@H]1CCCCO[C@H](CN(C)Cc2ccccc2)[C@H](C)CN([C@@H](C)CO)C(=O)c2cc(NS(=O)(=O)c3ccccc3)ccc2O1
  .	?
CCCNC(=O)N1CC2(CN(C(=O)c3cccc(F)c3)C2)c2c([nH]c3cc(OC)ccc23)[C@H]1CO
  -14	4
O=C(NCC[C@@H]1CC[C@H](NC(=O)C2CC2)[C@H](CO)O1)c1cnccn1
  -3	-2
C[C@@H]1CN([C@H](C)CO)C(=O)c2cc(C#Cc3ccncc3)cnc2O[C@H]1CN(C)S(=O)(=O)c1ccccc1F
  -6	-3
Cc1noc(C)c1NC(=O)N(C)C[C@@H]1Oc2c(NC(=O)Nc3ccc4c(c3)OCO4)cccc2C(=O)N([C@@H](C)CO)C[C@H]1C
  2	6
N#C[C@H]1[C@H](c2ccc(C#Cc3cccc(F)c3)cc2)[C@@H](CO)N1C(=O)C1CCCC1
  .	?
CN1C(=O)c2cc(NS(=O)(=O)c3ccc(Cl)cc3)ccc2OC[C@@H]2O[C@H](CC(=O)N3CCc4ccccc4C3)CC[C@H]21
  -17	-19
Cc1ccc(S(=O)(=O)NCC[C@H]2CC[C@H](NC(=O)c3cccnc3)[C@H](CO)O2)cc1
  3	5
C[C@@H]1CN([C@@H](C)CO)S(=O)(=O)c2ccc(C#Cc3ccccc3F)cc2O[C@H]1CN(C)CC1CCOCC1
  .	?
C[C@H](CO)N1C[C@H](C)[C@H](CN(C)S(=O)(=O)c2cccs2)Oc2ccc(NS(=O)(=O)c3ccc(Cl)cc3)cc2CC1=O
  -10	-5
O=C(C[C@H]1CC[C@H]2[C@@H](COC[C@H](O)CN2C(=O)C2CC2)O1)NCc1ccncc1
  9	7
Cc1nn(C)cc1NC(=O)C[C@H]1CC[C@@H]2[C@@H](COc3ccc(NC(=O)Nc4cccc(Cl)c4)cc3C(=O)N2C)O1
  12	16
CCCN(C)C[C@H]1OCCCC[C@H](C)Oc2ccc(NS(=O)(=O)c3ccccc3)cc2C(=O)N([C@@H](C)CO)C[C@@H]1C
  -16	-15

A portion of the library, so the mix of outcomes need not match the whole.
